Source: PubChem BioAssay
ID4 SMM: binders of human ID4 protein, primary screen, biochemical, small molecule microarray, single point; DNA-binding protein inhibitor ID-4 (Homo sapiens), P47928; AID 624137, 2012; calls only; actives 1.2% (n = 31,000); Flag-ID4 binding, fluorescence F/B;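 active = spot signal over background at p below 0.07 in all four prints; compounds were printed on slides so no solution concentration is given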;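 note: a binder raises fluorescence above local background on the spot; about 2 pmol printed per array spot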
Target sequence (P47928 whole entry, looked up): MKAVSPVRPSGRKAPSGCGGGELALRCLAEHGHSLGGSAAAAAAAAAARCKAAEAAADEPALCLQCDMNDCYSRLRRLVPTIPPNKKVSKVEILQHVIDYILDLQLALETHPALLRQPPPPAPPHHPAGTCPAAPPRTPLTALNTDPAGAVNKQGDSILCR
c-Myc SMM: binders of human c-Myc, primary screen, biochemical, small molecule microarray, anti-His fluorescence; Myc proto-oncogene protein (Homo sapiens), P01106; His-c-Myc binding; calls only; actives 1.5% (n = 17,000); AID 624141, 2012;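 active = spot fluorescence over background with P-value below 7% in all four replicate spots, showing protein binding; compounds were printed on slides so no solution concentration is given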;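 note: score is binary with 100 for all four spots passing and 0 otherwise; about 2 pmol printed per array spot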
Target sequence (P01106 whole entry, looked up): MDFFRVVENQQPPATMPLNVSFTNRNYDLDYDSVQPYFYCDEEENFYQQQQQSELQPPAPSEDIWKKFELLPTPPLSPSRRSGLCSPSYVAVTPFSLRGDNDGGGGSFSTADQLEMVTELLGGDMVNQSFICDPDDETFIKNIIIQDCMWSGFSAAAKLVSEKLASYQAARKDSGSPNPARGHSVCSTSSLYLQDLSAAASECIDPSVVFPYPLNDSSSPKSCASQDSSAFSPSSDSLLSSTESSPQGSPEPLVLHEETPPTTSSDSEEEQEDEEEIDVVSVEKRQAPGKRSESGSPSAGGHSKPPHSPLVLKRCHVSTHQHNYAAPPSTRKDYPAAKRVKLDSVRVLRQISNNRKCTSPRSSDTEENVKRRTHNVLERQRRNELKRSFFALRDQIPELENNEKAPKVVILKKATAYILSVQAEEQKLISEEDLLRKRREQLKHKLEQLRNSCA
STAT3 SMM: STAT3 binders, primary screen, biochemical, small molecule microarray, single point, set 2; Signal transducer and activator of transcription 3 (Homo sapiens), P40763; His-STAT3 binding, anti-His fluorescence; calls only; actives 0.2% (n = 17,000);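 active = compounds whose four printed spots each show fluorescence over background unusually high for their array block, chance value under 7%; compounds were printed on slides so no solution concentration is given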;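 note: about 2 pmol printed per array spot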
mut p53 SMM: binders of human mutant p53, primary screen, biochemical, small molecule microarray, anti-GST fluorescence. mutant tumor protein p53 (GST-tagged), Homo sapiens. small molecule microarray binding. calls only. actives 0.4% (n = 17,000). AID 624136, 2012;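 active = compounds whose four printed spots each glow above background more than chance allows, each with a p-value under 7%; compounds were printed on slides so no solution concentration is given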;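 note: about 2 pmol printed per array spot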
Calls only; i = inactive; / = not tested or not shown; + = active, no number.

Values run as follows: mut p53 SMM	c-Myc SMM	ID4 SMM	STAT3 SMM
> COc1ccc(S(=O)(=O)Nc2ccc3c(c2)CC(=O)N([C@H](C)CO)C[C@H](C)[C@H](CN(C)S(=O)(=O)c2ccc(OC)cc2)O3)cc1
    i	i	i	i
> C[C@@H]1CN([C@H](C)CO)C(=O)c2cc(NC(=O)Cc3ccccc3)ccc2O[C@H]1CN(C)C(=O)Nc1ccc(F)cc1
    i	i	i	i
> COC(=O)C1=C/C(C)=C\C(C)N(Cc2ccc(OC)cc2)/C=C\1C(=O)OC (stereo unspecified)
    i	i	i	i
> COc1ccc(C(=O)CC(=O)O)c2c1C=CC(C)(C)O2
    i	i	/	i
> C[C@H](CO)N1C[C@H](C)[C@@H](CN(C)S(=O)(=O)c2ccc(Cl)cc2)Oc2c(NS(C)(=O)=O)cccc2C1=O
    i	i	i	i
> COc1ccccc1OCc1nc2c3c(-c4ccccc4)c(-c4ccccc4)oc3ncn2n1
    i	i	i	i
> C[C@H](CO)N1C[C@H](C)[C@@H](CN(C)Cc2ccc(C(=O)O)cc2)Oc2ccc(NS(=O)(=O)c3cccs3)cc2C1=O
    i	i	/	i
> C=CCNC(=O)[C@H]1[C@@H]2C(=O)O[C@@H](c3ccccc3)[C@@H](c3ccccc3)N2[C@@H](c2ccccc2OCCO)[C@]12C(=O)Nc1ccc(C#CCCO)cc12
    i	i	i	i
> COc1cc(-c2ccccn2)nc(/C=N/O)c1S(C)=O (stereo unspecified)
    i	i	i	i
> CCCCCC1C(=O)O/C(=C\C(=O)O)C1=O (stereo unspecified)
    i	i	/	i
> Cc1noc(C)c1NC(=O)Nc1ccc2c(c1)C(=O)N([C@H](C)CO)C[C@@H](C)[C@@H](CN(C)C(=O)C1CCCCC1)OCCCC[C@@H](C)O2
    i	i	i	i
> C[C@@H]1CN([C@@H](C)CO)C(=O)c2cc(NS(C)(=O)=O)ccc2O[C@@H](C)CCCCO[C@H]1CN(C)C(=O)Nc1ccc(C(F)(F)F)cc1
    i	i	i	i
> C[C@H]1CN([C@@H](C)CO)C(=O)c2cccc(NC(=O)C3CCOCC3)c2O[C@@H]1CN(C)S(=O)(=O)c1ccc(Cl)cc1
    i	i	i	i
> C[C@@H]1CN([C@@H](C)CO)C(=O)Cc2cc(NC(=O)NC3CCCCC3)ccc2O[C@H]1CN(C)S(=O)(=O)c1ccc(Cl)cc1
    i	i	i	i
> C[C@@H]1CN([C@@H](C)CO)C(=O)c2cc(NC(=O)Cc3cn(C)c4ccccc34)ccc2O[C@H]1CN(C)Cc1ccc(-c2ccccc2)cc1
    i	i	/	i
> CC(C)NC(=O)N(C)C[C@H]1OCCCC[C@@H](C)Oc2ccc(NS(=O)(=O)c3ccccc3)cc2C(=O)N([C@@H](C)CO)C[C@@H]1C
    i	i	i	i
> COc1ccc(C#Cc2ccc3c(c2)[C@]2(C(=O)N3)[C@H](C(=O)NC[C@H](O)c3ccccc3)[C@H]3C(=O)O[C@H](c4ccccc4)[C@H](c4ccccc4)N3[C@@H]2c2ccc(O)cc2)cc1
    i	i	/	i
> COc1ccc(NC(=O)Nc2cccc3c2O[C@@H](CN(C)C)[C@H](C)CN([C@@H](C)CO)C3=O)cc1
    i	i	i	i
> COc1ccc(CN(C)C[C@@H]2Oc3c(NC(=O)c4nc5ccccc5s4)cccc3C(=O)N([C@@H](C)CO)C[C@H]2C)cc1
    i	i	i	i
> CC(C)C(=O)Nc1ccc(C(=O)NCc2ccco2)cc1
    i	i	i	i
> CC(=O)C(Sc1cc(C)nc(N)n1)C(=O)Nc1ccccc1 (stereo unspecified)
    i	i	i	i
> Cc1cccc(OC(=O)C(Cc2ccccc2)N2C(=O)C3C4CCC(C4)C3C2=O)c1C (stereo unspecified)
    i	i	i	i
> C[C@@H]1CN([C@@H](C)CO)C(=O)Cc2cc(NC(=O)c3ccncc3)ccc2O[C@@H]1CN(C)CC1CC1
    i	i	i	i
> CC1CCC2(C(=O)OC3OC(CO)C(O)C(O)C3O)CCC3(C(=O)O)C(=CCC4C5(C)CCC(O)C(C)(C)C5CCC43C)C2C1C (stereo unspecified)
    i	i	i	i
> CNC[C@H]1Oc2ccc(N(C)C)cc2CC(=O)N([C@@H](C)CO)C[C@H]1C
    i	i	i	i
> C[C@@H]1CN([C@H](C)CO)C(=O)CCCn2nncc2CO[C@H]1CN(C)Cc1ccc(O)cc1
    i	i	i	i
> C/C=C1\C(OC2OC(CO)C(O)C(O)C2O)OC=C(C(=O)OC)C1CC(=O)OCC1C(C)C(OC(=O)CC2C(C(=O)OC)=COC(OC3OC(CO)C(O)C(O)C3O)/C2=C\C)CC1C(CO)CO (stereo unspecified)
    i	i	/	i
> C[C@H](CO)N1C[C@H](C)[C@@H](CN(C)S(=O)(=O)c2cn(C)cn2)Oc2c(NC(=O)NC3CCCCC3)cccc2C1=O
    i	i	i	i
> CCOc1ccc(NC(=S)Nc2sc3c(c2C(=O)OC)CCC3)c([N+](=O)[O-])c1
    i	i	i	i
> COc1ccc(OCC(=O)Nc2ccc(-c3nc4cc(C)ccc4o3)cc2)cc1
    i	i	i	i
> Cc1cccc(-c2noc(CN(C)S(=O)(=O)c3cc(Cl)ccc3Cl)n2)c1
    i	i	i	i
> CCOc1ccccc1C(=O)Nc1ccc(S(=O)(=O)Nc2ccccn2)cc1
    i	i	i	i
> C[C@H]1CN([C@@H](C)CO)C(=O)c2cc(NC(=O)Nc3ccc(F)cc3)ccc2O[C@H]1CN(C)C(=O)Nc1ccccc1
    i	i	/	i
> CCO[C@H]1OC(C(=O)Nc2ccccc2)=C[C@@H](c2cn(C(C)=O)c3ccccc23)[C@@H]1CCCO
    i	i	/	i
> N#CC(C(=O)NCc1ccco1)c1ccccc1 (stereo unspecified)
    i	i	i	i
> C[C@@H]1CN([C@@H](C)CO)C(=O)c2cc(NS(C)(=O)=O)ccc2O[C@@H]1CN(C)C
    i	i	i	i
> CC(C)NC(=O)N(C)C[C@@H]1OCCCC[C@@H](C)Oc2ccc(NC(=O)CCCN(C)C)cc2C(=O)N([C@@H](C)CO)C[C@@H]1C
    i	i	i	i
> Cc1noc(C)c1S(=O)(=O)N(C)C[C@H]1Oc2ccc(NS(=O)(=O)c3ccc(Cl)cc3)cc2C(=O)N([C@@H](C)CO)C[C@H]1C
    i	i	i	i
> C[C@@H]1CN([C@@H](C)CO)C(=O)c2cc(NS(=O)(=O)c3ccccc3)ccc2O[C@H]1CN(C)C(=O)Nc1ccc2c(c1)OCO2
    i	i	i	i
> COc1ccc(NC(=O)Nc2ccc3c(c2)C(=O)N([C@H](C)CO)C[C@@H](C)[C@H](CN(C)C(=O)Nc2ccc(C(F)(F)F)cc2)O3)cc1
    i	i	/	i
> CC(=O)O[C@@]1(C)C[C@@H](O)[C@@H]2C=CO[C@@H](O[C@@H]3O[C@H](CO)[C@@H](O)[C@H](O)[C@H]3O)[C@@H]21
    i	i	/	i
> COC(=O)C1(Cc2ccc(O)cc2)OC(=O)C(=O)C1c1ccc(O)cc1 (stereo unspecified)
    i	i	i	i
> C[C@@H]1CN([C@@H](C)CO)C(=O)c2cccc(NC(=O)c3cnccn3)c2O[C@@H]1CN(C)CC1CC1
    i	i	i	i
> COc1ccc(CN(C)C[C@H]2Oc3ccc(NC(=O)CCC(F)(F)F)cc3C(=O)N([C@@H](C)CO)C[C@H]2C)cc1
    i	i	i	i
> Cn1c(SCC(=O)Nc2cccc(F)c2)nnc1-c1ccc(Cl)cc1
    i	i	i	i
> CNC[C@H]1Oc2c(NC(=O)Nc3ccc(C(F)(F)F)cc3)cccc2C(=O)N([C@@H](C)CO)C[C@H]1C
    i	i	i	i
> COc1ccccc1CN(C)C[C@H]1OCc2cnnn2CCCC(=O)N([C@@H](C)CO)C[C@H]1C
    i	i	i	i
> C=CCc1cccc(/C=N/NC(=O)CN2CCN(Cc3ccccc3)CC2)c1O
    i	i	i	i
> CNC[C@H]1OCCCC[C@@H](C)Oc2ccc(NC(=O)C3CCCCC3)cc2C(=O)N([C@H](C)CO)C[C@H]1C
    i	i	i	i
> O=C(Nc1ccccc1C(=O)N1CCOCC1)C1CCCO1 (stereo unspecified)
    i	i	i	i
> C[C@H](CO)N1C[C@H](C)[C@@H](CN(C)C(=O)Nc2cccc3ccccc23)Oc2ccc(NC(=O)Nc3cccc4ccccc34)cc2C1=O
    i	i	i	i
> O=C1O[C@@H](c2ccccc2)[C@@H](c2ccccc2)N2[C@@H](c3ccc(OCCO)cc3)[C@]3(C(=O)Nc4ccc(C#CCCO)cc43)[C@@H](C(=O)N3CCCCCCC3)[C@H]12
    i	i	/	i
> OC[C@H]1O[C@@H](Oc2ccc3c(c2)OC[C@H]2c4cc5c(cc4O[C@@H]32)OCO5)[C@H](O)[C@@H](O)[C@@H]1O
    i	i	i	i
> C=C1C[C@@]23C[C@H]4C5[C@@]6(C)CC(=O)C[C@]57C(C2C(O)[C@H]1C(O)C37)N4C6 (stereo partly specified)
    i	i	/	i
> O=C(O)C1CC(O)CN1S(=O)(=O)c1ccc(Cl)cc1 (stereo unspecified)
    i	i	i	i
> CCn1c(SCC(=O)Nc2ccccc2Br)nnc1-c1ccccc1
    i	i	i	i
> O=C(Cn1cc(CN2C(=O)COC[C@H]2c2ccccc2)nn1)Nc1nccs1
    +	i	/	i
> O=C(O)c1ccccc1-c1ccccc1C(=O)NCCCO
    i	i	i	i
> COc1ccc(S(=O)(=O)N(C)C[C@@H]2Oc3c(NS(=O)(=O)c4c(C)noc4C)cccc3C(=O)N([C@@H](C)CO)C[C@@H]2C)cc1
    i	i	i	i
> CCCn1nnc(NC(=O)C(C)Oc2ccc(Cl)cc2Cl)n1 (stereo unspecified)
    i	i	i	i

Single records, as listed above. Order of screens: mut p53 SMM	c-Myc SMM	ID4 SMM	STAT3 SMM
CC1CCC2(C(=O)OC3OC(CO)C(O)C(O)C3O)CCC3(C(=O)O)C(=CCC4C5(C)CCC(O)C(C)(C)C5CCC43C)C2C1C (stereo unspecified) across the screens: i	i	i	i
COC(=O)C1(Cc2ccc(O)cc2)OC(=O)C(=O)C1c1ccc(O)cc1 (stereo unspecified) across the screens: i	i	i	i
O=C(Cn1cc(CN2C(=O)COC[C@H]2c2ccccc2)nn1)Nc1nccs1 across the screens: +	i	/	i

Further results follow:
Values run as follows: mut p53 SMM	c-Myc SMM	ID4 SMM	STAT3 SMM
> C[C@H](CO)N1C[C@H](C)[C@H](CN(C)C(=O)Nc2cccc3ccccc23)Oc2c(NS(=O)(=O)c3cccs3)cccc2C1=O
    i	i	i	i
> Cc1ccc(S(=O)(=O)N(C)CC(=O)Nc2cccc3c2CCCC3)cc1
    i	i	i	i
> O=S(=O)(NC1CCN(Cc2ccc(OCCO)cc2)CC1)c1cc(C(F)(F)F)ccc1Cl
    i	i	i	i
> C[C@@H]1CN([C@H](C)CO)C(=O)c2cccc(NC(=O)Nc3ccc(C(F)(F)F)cc3)c2O[C@@H]1CN(C)C(=O)NC1CCCCC1
    i	+	i	i
> CNC[C@H]1OCc2cn(nn2)CCCC(=O)N([C@@H](C)CO)C[C@H]1C
    i	i	i	i
> C=CCNC(=O)c1c(NC(=O)C2COc3ccccc3O2)sc2c1CCCC2 (stereo unspecified)
    i	i	i	i
> O=C1c2cccc3cccc(c23)C(=O)N1CCc1cnc[nH]1
    i	i	i	i
> Cc1noc(C)c1S(=O)(=O)Nc1ccc2c(c1)CC(=O)N([C@@H](C)CO)C[C@@H](C)[C@@H](CN(C)C(=O)Nc1ccc(C(F)(F)F)cc1)O2
    i	i	i	i
> O=C(Nc1ccc(S(=O)(=O)Nc2ccccn2)cc1)c1cc2ccccc2oc1=O
    i	i	i	i
> COc1ccc(-c2cnc3c(-c4ccsc4)cnn3c2)cc1
    i	i	i	i
> CC(O)CNS(=O)(=O)c1cccc([N+](=O)[O-])c1 (stereo unspecified)
    i	i	i	i
> CCCC[C@]12CCCC(=O)N1CCc1c2[nH]c2ccccc12
    i	i	i	i
> O=C(NCCCn1ccnc1)c1cnn2c(C(F)(F)F)cc(-c3ccccc3)nc12
    i	i	i	i
> Cc1cc(Cl)ccc1OCC(O)CN1CCC(CN2C(=O)c3cccc4cccc(c34)C2=O)CC1 (stereo unspecified)
    i	i	i	i
> C[C@H]1CN([C@@H](C)CO)C(=O)c2cc(NS(=O)(=O)c3ccc(Cl)cc3)ccc2O[C@@H]1CN(C)C(=O)NC1CCCCC1
    i	i	i	i
> CNC[C@@H]1Oc2c(NC(=O)Nc3ccccc3)cccc2C(=O)N([C@@H](C)CO)C[C@H]1C
    i	i	i	i
> Cc1cccc(NC(=O)c2ccc(OCC(=O)Nc3ccccc3)cc2)c1C
    i	i	i	i
> CNC[C@H]1OCCCC[C@H](C)Oc2ccc(NS(=O)(=O)c3cccs3)cc2C(=O)N([C@H](C)CO)C[C@@H]1C
    i	i	i	i

An excerpt. The share of hits here may be higher or lower than overall.
